# Screening results as filed in PubChem BioAssay.
# Env fusion inh = blocks HIV Env-driven cell-cell fusion; inhibition, % at 12.3 µM; AID 651610; HeLa-JRFL Env/CEM21 cell fusion, luciferase; 360,000 compounds, 1.1% hits;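 active means mean replicate inhibition score of at least 50 and every replicate individually at or above 50; inconclusive means only one of the two criteria met; inactive means mean below 50 and not all replicates reaching 50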;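 further: 0% = plate neutral controls and 100% = maraviroc near 300 nM; one replicate is shown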
# PABP FP inh = blocks human PABP binding to poly(A) RNA; P11940; 290,000 compounds, 1% hits; fluorescence polarization; inhibition, % at 35 µM; AID 2014;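 active means 50% or more with normal probe brightness, or confirmed in later tests; inconclusive means above 50% with abnormal brightness, or retests that disagree; inactive means below 50% or failed in later tests; about a fifth of its hits are not listed in these tables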;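 further: calls also rest on retests at 20 µM and on dose response follow-up; controls were probe without protein and protein plus probe with vehicle; some compounds called inactive have numbers as strong as hits; many hits fall short of the cut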
# eIF4H FP inh = inhibitors of RNA binding by human eIF4H | inhibition, % at 35 µM | eIF4H fluorescence polarization binding assay | 290,000 compounds, 0.94% hits | AID 2012;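 active means 50% or more with normal probe brightness, or confirmed in later tests; inconclusive means above 50% with abnormal brightness, or retests that disagree; inactive means below 50% or failed in later tests; about a fifth of its hits are not listed in these tables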;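 further: calls also rest on retests at 20 µM and on dose response follow-up; 0% = protein and probe with vehicle and 100% = probe without protein; strong numbers were not always called active; many hits fall short of the cut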
# MT1-MMP act inh = MT1-MMP (human) activation inhibition; P50281; HT1080 RFP-PRO-GFP cells, GFP/RFP ratio fluorescence, overnight; percent of plate control window, DMSO zero; GFP/RFP ratio change, % at 20 µM; 360,000 compounds, 0.061% hits; AID 651647;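 active means GFP/RFP ratio change of at least 30% with cell ATP level not reduced by more than half and red fluorescence within 50% of control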; further: strong numbers were not always called active
#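 Compound: 20 µM single dose, 1% DMSO / System: HT1080 RFP-PRO-GFP cells / Controls: DMSO and RFP-L50D-GFP cell wells / Read-out basis: GFP/RFP fluorescence ratio / Schedule: overnight compound exposure at 37 °C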
# UUG fidelity = alters start codon recognition fidelity in yeast. 350,000 compounds, 0.13% hits. S. cerevisiae UUG-firefly luciferase reporter, luminescence/redox ratio. activity score, % at 18.7 µM;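 active means replicate mean at a twofold rise or more, about +100% in these data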;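 further: firefly luciferase made from a UUG start codon reports start codon fidelity; reporter light over untreated wells divided by growth signal over untreated wells; some hits fall short of that in this replicate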
# Rce1 inhib = inhibitors of yeast Ras-converting enzyme; Q03530; yeast membranes, quenched prenylated peptide cleavage fluorescence; calls only; 290,000 compounds, 0.27% hits; AID 2563;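 active means fall in fluorescence gain of 50% or more versus controls, with final raw signal at or below 3038400; inconclusive means same 50% fall but final raw signal above 3038400; inactive means fall in fluorescence gain under 50%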;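 further: plate controls were neutral control wells for no effect and wells lacking membranes for full effect; tested at 10 µM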
# Target sequence (Q03530 whole entry, looked up): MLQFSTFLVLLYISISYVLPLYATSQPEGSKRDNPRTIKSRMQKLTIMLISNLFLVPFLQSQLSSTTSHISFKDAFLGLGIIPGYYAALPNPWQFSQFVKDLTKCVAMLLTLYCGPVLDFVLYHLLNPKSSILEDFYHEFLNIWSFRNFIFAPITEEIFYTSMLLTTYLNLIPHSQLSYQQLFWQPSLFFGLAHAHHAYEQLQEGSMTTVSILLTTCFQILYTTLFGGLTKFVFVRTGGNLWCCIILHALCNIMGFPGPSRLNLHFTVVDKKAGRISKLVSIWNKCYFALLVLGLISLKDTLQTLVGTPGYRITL
# CSC inhib = blocks cancer stem cells; cancer stem cell-like cells viability, luminescence; AID 2717; 300,000 compounds, 1.1% hits; inhibition, % at 7.5 µM;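 active means mean at 75% or more and at least half the replicates too; inconclusive means mean and replicates disagree; tested in HMLE shEcad cells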;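 further: 0% = median of negative and 100% = median of positive control wells; the first replicate is given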
# MT1-MMP act inh RFP = further read-out of MT1-MMP act inh, marked with its call; RFP signal change, %; measured here: RFP expression control read;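 0 = vehicle wells; hits needed this value within 50% of zero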
# Numbers without * were called inactive; i = inactive; u = inconclusive; x = not tested or not shown; & = joins results of further samples.
# Sample of the layout, two compounds:
SMILES,Env fusion inh,PABP FP inh,eIF4H FP inh,MT1-MMP act inh,MT1-MMP act inh RFP,UUG fidelity,Rce1 inhib,CSC inhib
NS(=O)(=O)c1cccnc1Nc1ccc(Cl)c(Cl)c1,x,0,-3,2,-3,-40,i,9
Cc1ccc(C)c(NC(=O)CCC(=O)N/N=C2/CC(=O)CC(C)(C)C2)c1,2,6,-4,-4,1,x,i,-2

# Main list, from the first entry:
SMILES,Env fusion inh,PABP FP inh,eIF4H FP inh,MT1-MMP act inh,MT1-MMP act inh RFP,UUG fidelity,Rce1 inhib,CSC inhib
NS(=O)(=O)c1cccnc1Nc1ccc(Cl)c(Cl)c1,x,0,-3,2,-3,-40,i,9
Cc1ccc(C)c(NC(=O)CCC(=O)N/N=C2/CC(=O)CC(C)(C)C2)c1,2,6,-4,-4,1,x,i,-2
COC(=O)c1cc(S(=O)(=O)NCCc2ccc(SC)cc2)c[nH]1,8,3,5,-7,-11,-4,i,-3
O=C(NC1CCCCC1)c1ccc(N2CCOCC2)c([N+](=O)[O-])c1,-7,0,-11,-1,3,2,i,x
CSc1nc(O)c(C(c2ccc(O)cc2)c2c(O)nc(SC)[nH]c2=O)c(=O)[nH]1,-7,28,6,-5,3,-17,x,-15
CN(C)CCNC(=O)c1sc2cccc(F)c2c1Cl,7,5,-4,2,3,-17,i,-11
O=C(N/N=C/c1ccco1)c1cnccn1,x,-7,-1,10,3,-16,i,-9
COC(=O)C1CCCN1C(C(=O)NC1CCCCC1)c1ccc(Cl)cc1 (centres undefined),66*,4,1,-1,8,-18,i,2
Cc1ccc(C)c2c(SC(C)C(=O)NCc3ccco3)nc(-c3ccccc3)nc12 (centres undefined),x,-5,-4,-4,1,-7,i,-3
O=C(O)c1sccc1Oc1ccc(NS(=O)(=O)c2cccc(F)c2)cc1,-14,14,-2,2,6,-8,i,-7
CC1CC2=C(NC(=S)NC2c2ccccc2F)/C(=C/c2ccccc2F)C1 (centres undefined),3,-14,-3,-2,-4,x,i,6
N#Cc1nc(-c2ccccc2Cl)oc1N1CCOCC1,-66,13,-9,-3,-3,-5,i,10
Cc1ccc(NC(=S)Nc2nc(CC(=O)Nc3ccccc3)cs2)cc1,-1,-9,-8,9,-5,-29,i,-4
COc1ccc(/C=C(\NC(=O)c2cccs2)C(=O)Nc2ccccc2C)cc1OC,-12,-12,-2,1,2,1,i,-4
O=C1CCC(C(=O)Nc2cccc(S(=O)(=O)Nc3ccccc3F)c2)=NN1,22,x,x,0,-10,-12,x,5
CCOc1ccc(OCC(=O)Nc2c3c(nn2C(C)(C)C)CS(=O)(=O)C3)cc1,6,-8,-14,-4,1,-6,i,-8
N/C(=N\c1nc2c(c(=O)[nH]1)CCCC2)Nc1ccccc1Sc1ccccc1,-12,-3,-8,6,-4,-10,i,-3
COc1ccc(/C=N/c2nc3ccccc3n2C)cc1OC,-50,-3,2,0,2,-17,i,4
CN(CC(=O)Nc1ccccc1Br)C(=O)CNC(=O)Cc1cccc2ccccc12,-4,-3,-4,1,4,-11,i,x
CCOC(=O)C1=C(C)OC(N)=C(C#N)C1c1cc(OC)c2c(c1)OCO2 (centres undefined),x,4,-4,-4,-2,0,i,-3
CCc1ccc(NC(=O)c2ccnc(C(C)(C)C)c2)cc1,3,-1,12,-3,-2,-11,i,-1
COc1ccc(C2=NOC(C)(c3nnc(-c4ccc(F)cc4)o3)C2)cc1 (centres undefined),-11,2,2,1,0,-10,i,-1
NC(=O)C1(N2CCCCC2)CCN(C2CC(=O)NC2=O)CC1 (centres undefined),x,4,-6,2,6,-15,i,-5
Cc1ccc(Cl)cc1NC(=O)Nc1cccs1,-11,11,26,-5,-2,x,i,4
COC(=O)Nc1ccc(S(=O)(=O)N2CCN(CCN3C(=O)C4C5C=CC(C5)C4C3=O)CC2)cc1 (centres undefined),15,-4,-2,3,4,-4,i,-6
COc1ccc(/C=C(/NC(=O)c2ccc(OC)c(OC)c2)C(=O)NCCCn2ccnc2)cc1,28,-2,-10,0,1,-21,i,-6
COc1cc(-c2cnc3c(NC=O)cc(-c4ccccc4Cl)cn23)cc(OC)c1OC,-6,x,x,21,3,-13,x,x
COCCn1c(CCC(=O)O)ccc1-c1cccs1,12,-9,13,6,4,x,i,-2
CC(C)c1ccc(Nc2nnc(SCC(=O)Nc3ncc(S(=O)(=O)c4ccc([N+](=O)[O-])cc4)s3)s2)cc1,-53,0,-5,5,0,x,i,1
Cc1cccc(-c2ncc(CN3CCN(C4CCCC4)C(CCO)C3)cn2)c1 (centres undefined),9,-2,3,13,1,x,i,44
Cc1ccc(C)c(NC(=O)c2ccc3c(c2)N(Cc2ccc(F)cc2)C(=O)CS3=O)c1 (centres undefined),-10,17,-12,1,3,-3,i,4
CCOC(=O)CN1NC2(CCC(C)CC2)NC1=S (centres undefined),19,6,-1,-3,4,x,i,-7
CCOc1ccc(S(=O)(=O)N2CCC(C(=O)NCc3ccccn3)CC2)cc1,-8,7,17,1,8,-15,i,-2
CCCC(=O)N1CCc2cc(-c3nc(N)sc3C)ccc21,-302,12,-5,1,-1,-15,i,5
Cc1cccc(-n2c(O)c(C=NCc3ccccn3)c3ccccc3c2=O)c1,10,-5,-7,-6,3,x,x,-12
O=C(CCc1ccccc1Cl)Nc1ccc(S(=O)(=O)Nc2nccs2)cc1,-8,x,x,2,3,-9,x,x
CC(=O)Nc1ccc2nc(NC(=O)COc3ccccc3C)sc2c1,4,4,-1,4,2,-11,i,-20
Cc1c(Cl)cccc1NC(=S)N(C)CCC#N,11,13,-3,-1,0,x,i,19
CCOC(=O)C1CCCN(C(=O)c2cccc3ccccc23)CC1 (centres undefined),5,x,x,5,7,-7,x,x
CCC(C(=O)O)n1c(C(F)(F)F)nc2ccccc21 (centres undefined),x,14,12,-3,-3,-15,i,8
COCCSc1nnc(NC(=O)Cc2cccs2)s1,-13,32,2,3,-1,-8,i,1
COc1ccc([N+](=O)[O-])cc1NS(=O)(=O)c1cc(C(=O)NCc2cccnc2)ccc1Cl,x,x,x,-1,2,-4,x,11
Cc1ccc(C(=O)NC2CCN(Cc3ccccc3)CC2)cc1S(=O)(=O)N1CCOCC1,10,x,x,6,-2,3,i,-15
Cc1ccccc1OCc1nnc(SCC(=O)O)n1Cc1ccccc1,5,-3,1,1,4,x,i,0
Cc1cnc(C(=O)OCC(=O)N2CCc3ccccc3C2)cn1,x,9,4,2,1,14,i,-4
Cn1c(=O)c2c(SCC(N)=O)nc(CC(C)(C)C)nc2n(C)c1=O,-152,-14,-14,1,7,-10,i,-1
COc1ccc(-n2c(=O)c3ccccc3n(CC(=O)Nc3cc(C)on3)c2=O)cc1OC,x,11,3,-1,2,-14,i,-8
COc1ccc(C(=O)N2CCC(N3CCN(c4ccccc4)CC3)CC2)cc1OC,-9,16,10,-6,2,-14,i,8
Nc1cc(=O)[nH]c(=S)n1-c1ccccc1,-33,9,4,-2,-4,0,i,6
COC(=O)c1cc(S(=O)(=O)N2CCN(c3cccc(OC)c3)CC2)cn1C,3,x,x,-1,-4,-12,i,-3
COc1cc(OC)cc(N2CC(C)(C)C2=O)c1,17,-6,4,2,-2,x,i,-5
CC1CCc2c(sc3ncnc(SCC(=O)N(C)C4CCS(=O)(=O)C4)c23)C1 (centres undefined),13,x,x,0,-3,-1,x,-7
CCOc1ccc(NC(=O)COC(=O)c2ccc3c(c2)OCO3)cc1,x,x,x,2,5,-17,x,-17
COc1cc(/C=C/C(=O)OCC(=O)NNC(=O)c2cc(Cl)ccc2OC)ccc1O,x,x,x,1,5,-17,x,4
COc1ccc(C(=O)N2CCN(S(=O)(=O)c3ccc4c(c3)OCCO4)CC2)cc1OC,-5,x,x,5,4,-9,x,x
Cc1cccc(-n2c(Cc3ccccc3)nnc2SCc2ccc([N+](=O)[O-])cc2)c1,u,-4,4,-7,-6,-8,i,-1
O=C(NN1C(=O)c2ccccc2NC1c1ccccn1)c1ccc(Br)cc1 (centres undefined),-28,9,-1,0,-4,-16,i,x
O=C1CN(C(=O)COC(=O)C2CCN(S(=O)(=O)c3ccccc3C(F)(F)F)CC2)c2ccccc2N1,-18,-1,4,2,6,-6,i,-9
COc1ccccc1C(=O)NC(=O)CSc1ccc(C)c(C)c1,-3,x,x,0,2,x,x,-11
O=C1Nc2ccccc2O/C1=C\c1c(F)cccc1Cl,-25,10,-5,1,3,-23,i,15
# More records
SMILES,Env fusion inh,PABP FP inh,eIF4H FP inh,MT1-MMP act inh,MT1-MMP act inh RFP,UUG fidelity,Rce1 inhib,CSC inhib
O=C(Nc1cccc(S(=O)(=O)NC2=NCCC2)c1)c1ccc(=O)[nH]c1,x,x,x,-1,2,-1,x,-17
O=C(c1ccc(F)cc1F)N1CCCN(c2nc(-c3ccccc3)ns2)CC1,18,-4,-1,-3,-1,-6,i,-6
COC(=O)c1sc(NC(=O)c2csc3c2CCCC3)nc1C,-174,3,-2,-26,-12,-25,i,8
O=C(O)CN1CCN(Cc2ccccc2)C1=O,14,-5,7,7,11,-15,i,-13
COc1ccc(C(=O)N[C@H](C(=O)OCc2cc(=O)oc3cc(C)ccc23)C(C)C)cc1,25,17,7,13,7,0,i,-11
CCCCN(C(=O)c1ccc(N(C)S(=O)(=O)c2ccc(C)cc2)cc1)c1c(N)n(CCCC)c(=O)[nH]c1=O,2,x,x,0,1,-2,i,-10
N=C1c2ccccc2CN1c1ccc(N2CCOCC2)c(S(=O)(=O)Nc2ccc(Cl)cc2)c1,2,-9,-4,x,x,x,i,1
Cc1ccc(/C=C/C(=O)NCCCc2ccccc2)cc1,3,8,0,-1,6,-18,i,x
CCOC(=O)C(NC(=O)CC(C)C)(Nc1cc(C)on1)C(F)(F)F (centres undefined),-19,-5,-7,3,5,13,i,11
COc1cc(OC)cc(C(=O)Nc2cccc(-c3ccc(N4CCOCC4)nn3)c2)c1,-37,x,x,3,1,-1,i,x
CCc1nnc(NS(=O)(=O)c2ccc(NC(=O)/C=C/c3ccc(OC)cc3OC)cc2)s1,x,1,6,7,-1,-8,i,1
CC(C)c1nc2sc3c(c2c(=O)n1N)CC(C)(C)OC3,3,11,-9,-2,-3,x,i,-14
CCOC(=O)c1c(O)cc(C)[nH]c1=O,6,3&6,-8&3,8,12,-17,i,-10
CC1(C)S[C@@H]2[C@H](NC(=O)[C@H](N)c3ccc(O)cc3)C(=O)N2[C@H]1C(=O)O,22,-2,2,-1,2,0,i,11
CCC(=O)Nc1nc(-c2ccccc2)ns1,-100,5,0,2,-5,-19,i,5
COc1cccc(-c2nc3n(n2)CCc2ccccc2-3)c1,-86,x,x,-5,1,-17,x,x
Cc1ccccc1N=Nc1c(C)[nH]n(C(N)=S)c1=O,-16,-18,0,11,2,-17,i,0
CC(C)(C)c1ccc(C(=O)NCc2nnc(SCC(=O)NC3CCCCC3)o2)cc1,7,3,-18,-2,-2,-8,i,-4
O=C1Nc2cc(C(=O)N3CCC(N4CCCCC4)CC3)ccc2S/C1=C\c1ccccc1,-1,1,0,4,0,0,i,40
CCn1cc(/C=N/NC(=O)COc2cccc3cccnc23)c2ccccc21,1,-10,-4,-1,1,x,i,-5
S=C(Nc1ccc(Cl)cc1)N1CCN(Cc2ccccc2)CC1,12,-2,-3,3,-2,-18,i,-11
O=C(Nc1ccc(Cl)cc1Cl)N1CCN(c2ncccn2)CC1,-3,-8,-12,0,-2,4,i,-6
Cc1csc(NC(=O)CSc2ccc(-c3ccccn3)nn2)n1,5,4,-2,3,8,-30,i,0
COc1ccc2c(c1)CCc1c(C(=O)NC3CCCCC3)noc1-2,-179,-6,-5,-4,-9,-14,i,-11
